Screens (PubChem)
gsp antag: qHTS for Antagonists of gsp, the Etiologic Mutation Responsible for Fibrous Dysplasia/McCune-Albright Syndrome: qHTS. Potency, µM (top dose mostly 76.9 µM), without a hit: at the top dose activity change, negative = inhibition, usual class: inhibitors. actives 0.4% (n = 340,000). gsp-mutant cells, cAMP HTRF, 30 min; control for the full effect not named in the record; active = falling curve of any shape with a large fitted effect; inconclusive = falling curve, mostly with a smaller effect; inactive = flat or rising curve; cell line not stated here;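 further: intracellular cAMP measured with PDE inhibitor Ro 20-1724 present during compound exposure; potency means the concentration at half of the fitted maximal effect; on the % scale 0 is the no-effect control and ±100 the full control effect; nearly all actives have a fitted effect of over 65% in size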
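Cells in G418 medium, seeded 16-24 h, 37C; buffer exchange to DPBS + 1 mM CaCl2, 0.5 mM MgCl2, 0.05% BSA; cpds in DMSO + […] (300 uM stock), 30 min 37C; HTRF cAMP detection.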
ClpP mod: qHTS Assay for Activators of ClpP; ATP-dependent Clp protease proteolytic subunit (Bacillus subtilis (strain 168)), P80244; purified B. subtilis ClpP, FRET peptide cleavage, 20 min; Potency, µM (titrated, usually from 57.5 µM), inactives show top-dose activity change, negative = active; actives 1.9% (n = 340,000); AID 651965, 2013; active = well fitted falling curve with a large enough effect; inconclusive = small, poorly fitted or top-dose-only effect; inactive = no such curve, though single readings can be large or run the other way; further: potency means the concentration at half of the fitted maximal effect; the source files actives as falling curves though it sought activators and does not explain the sign; nearly all actives have a fitted effect of over 65% in size; many hits overshoot -100%
Target sequence (P80244 whole entry, looked up): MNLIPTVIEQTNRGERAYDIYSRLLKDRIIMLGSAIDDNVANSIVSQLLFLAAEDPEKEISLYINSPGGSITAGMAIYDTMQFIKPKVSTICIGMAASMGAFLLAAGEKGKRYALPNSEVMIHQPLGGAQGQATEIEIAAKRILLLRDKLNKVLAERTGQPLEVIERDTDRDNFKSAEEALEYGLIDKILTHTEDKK
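ClpP 10 microg/mL final, pH 8 Tris/KCl buffer with BSA, glycerol, Tween-20; compound pinned in; FRET-FV substrate; RT 20 min; Ex320/Em430; ΔFRET vs ADEP 5.8 microM, DMSO, no enzyme.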
Menin MLL FP FL: qHTS Assay for Inhibitors Targeting the Menin-MLL Interaction in MLL Related Leukemias: Competition With Fluorescein Labeled MLL-derived Peptide; Fluorescence polarization, fluorescein-MLL peptide displacement from menin; FP activity change, % at 61.4 µM; 290,000 tested, under 10 active; AID 1766, 2009; inconclusive = falling polarisation curve, or a change in total fluorescence; inactive = total fluorescence flat and polarisation flat or rising; no compound was filed as active; the % refers to the polarisation; negative = inhibition;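 further: % of control where 0% means no effect; inhibitors lower the polarisation; unlabelled MLL peptide was the positive control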
TRPML1 agonist: qHTS for Agonists of the Human Mucolipin Transient Receptor Potential 1 (TRPML1) | Mucolipin-1 (Homo sapiens), Q9GZU1 | TRPML1-expressing cells, Ca2+ dye fluorescence, FDSS; host cell line not named in the record; reference of the full effect not given here | activation, % (test concentration not listed) | actives 0.12% (n = 410,000) | AID 624414, 2012; in the data active = activation above about 50%; inconclusive = about 30% to 50%; inactive = below about 30%; further: 0% is about no effect; the text of the record puts the active cut at 80%
Target sequence (Q9GZU1 whole entry, looked up): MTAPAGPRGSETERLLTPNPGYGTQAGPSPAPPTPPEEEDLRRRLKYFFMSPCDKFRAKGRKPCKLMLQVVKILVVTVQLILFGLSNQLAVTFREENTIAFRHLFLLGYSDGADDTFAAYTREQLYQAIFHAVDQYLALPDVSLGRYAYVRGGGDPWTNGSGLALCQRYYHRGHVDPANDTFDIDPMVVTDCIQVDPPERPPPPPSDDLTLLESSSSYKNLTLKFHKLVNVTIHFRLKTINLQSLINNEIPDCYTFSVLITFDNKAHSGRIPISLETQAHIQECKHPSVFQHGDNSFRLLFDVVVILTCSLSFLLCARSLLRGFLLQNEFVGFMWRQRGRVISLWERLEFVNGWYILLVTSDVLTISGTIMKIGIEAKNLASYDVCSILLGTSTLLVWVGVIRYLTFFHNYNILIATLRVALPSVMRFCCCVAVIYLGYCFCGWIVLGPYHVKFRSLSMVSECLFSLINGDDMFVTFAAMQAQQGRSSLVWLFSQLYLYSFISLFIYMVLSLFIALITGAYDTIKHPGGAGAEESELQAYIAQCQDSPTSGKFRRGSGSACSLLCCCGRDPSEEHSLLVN
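In this qHTS format, compounds were pin-transferred onto Ca8-dye-loaded TRPML1-DL cells induced with Tet overnight, and intracellular Ca2+ fluorescence was recorded kinetically for 110 s after a 10 s baseline. A subsequent 4uM final 54-4 (EC80) addition followed by a second 110 s read served as the antagonist phase.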
TRPML1 blocker: qHTS for Inhibitors of the Human Mucolipin Transient Receptor Potential 1 (TRPML1). Mucolipin-1 (Homo sapiens), Q9GZU1. TRPML1-inducible cells, Ca2+ dye fluorescence, FDSS; stronger effect = lower value; inhibition of EC80 agonist-evoked calcium signal. activity change, negative = inhibition, % (test concentration not listed). actives 0.02% (n = 390,000); in the data active means activity change below about -50%; inconclusive means about -30% to -50%; inactive means above about -30%;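 further: stimulus is agonist 54-4 at its EC80 concentration; on the % scale 0 is the no-effect control and ±100 the full control effect; compound concentration not given in the record; the text of the record puts the active cut at -80%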
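Calcium fluorescence in TRPML1-DL cells induced overnight with Tet: a 110 s read after compound pin addition, then a 110 s antagonist read after challenge with 54-4 at 4 uM final (EC80).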
gsp agonist: qHTS for Agonist of gsp, the Etiologic Mutation Responsible for Fibrous Dysplasia/McCune-Albright Syndrome: qHTS; actives 0.13% (n = 340,000); AID 624287, 2012; gsp mutant cells, cAMP HTRF, 30 min; control for the full effect not named in the record; Potency, µM (titrated, usually from 76.9 µM), without a hit: at the highest dose activation (cAMP increase), actives largely listed as activators; active = well fitted activation curve with a large enough effect; inconclusive = small, poorly fitted or top-dose-only effect, or another doubt; inactive = no such curve, though single readings can be large or run the other way; cell line not stated here;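 further: phosphodiesterase inhibitor Ro 20-1724 added with compounds to block cAMP breakdown; potency means the concentration at half of the fitted maximal effect; nearly all actives have a fitted effect of over 60% in size; about a fifth of the inactives were tested at one dose only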
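Cells stably selected in G418 were plated at 2000/well, grown 16-24 hr, then given compounds in DMSO with the PDE inhibitor […] (300 uM solution added) for 30 min at 37C; cAMP was read by HTRF.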
Active calls of the source: *; ? = inconclusive; / = no result given; [ ] = dose if it differs, or a comment.

compound	TRPML1 agonist	ClpP mod	Menin MLL FP FL	gsp antag	gsp agonist	TRPML1 blocker
CCOC(=O)Cn1c(=O)n(C2CCCC2)c(=O)c2ccccc21	1.5	-0.5%	1.9	-9%	-12%	-4
CCOC(=O)C1CCN(C(=O)c2cccc(NS(=O)(=O)c3ccc(Br)cc3)c2)CC1	0.8	-1.3%	/	-14%	8%	-2
CC(=O)Nc1ccc(Sc2ncnc3scc(-c4ccccc4)c23)cc1	1.5	-1.4%	1.0	25%	11%	27
Cc1sc2ncnc(NCCc3ccc(S(N)(=O)=O)cc3)c2c1C	0.4	-2.7%	-0.9	-19%	30%	0
CN(Cc1cccc(Cl)c1Cl)C(=O)c1ccc(NC(=O)CC#N)cc1	0.5	0.9%	12	2%	-27%	54
COc1ccc(Cn2c(=O)c3oc4ccccc4c3n(CC(=O)Nc3c(C)cccc3C)c2=O)cc1	1.0	-0.6%	/	/	/	-11
O=C(NNC(=O)C1CCC1)c1ccc(Cl)cc1	0.8	-2.9%	/	9%	16%	31
N=c1c(S(=O)(=O)c2ccc(Br)cc2)cc2c(=O)n3ccccc3nc2n1Cc1ccco1	0.0	4.4%	?	3%	?	41
CC(NC(=O)CC(O)(C(F)(F)F)C(F)(F)F)c1ccccc1 (configuration not stated)	-0.4	0.7%	1.4	-10%	8%	5
COc1cc(/C=N/NC(=O)c2cc(-c3ccc4c(c3)OCO4)n[nH]2)ccc1O	0.0	/	10	-9%	0%[15.4 µM]	-6
CC(=O)c1ccc(NC(=O)c2cnn(-c3cccc(F)c3)c2-n2cccc2)cc1	2.9	-0.3%	/	/	/	-26
O=C(NCc1cccs1)c1ccc(CSc2nc3ccncc3n2Cc2ccccc2F)cc1	1.3	-10%	/	/	/	-5
O=C(NC1CCN(C(=O)Nc2cccc(F)c2)CC1)C1CCCCC1	-0.1	2.1%	-1.7	8%	-3%	-1
COc1ccccc1/C=C/C(=O)OCCN1CCOCC1	0.0	25µM*	-2.9	12%	29%	-22
Cc1ccc(CNC(=O)c2ccc3c(c2)NC(=O)C(CS(=O)(=O)Cc2cccc(F)c2)N3)cc1 (configuration not stated)	1.8	4.1%	/	/	/	-17
Cc1nn(-c2ccccc2)c(C)c1C(=O)OCC(=O)Nc1cccc(S(N)(=O)=O)c1	-0.2	0.6%	/	1%	-6%	1
CN(C)CCN(C(=O)c1ccc2c(c1)OCCO2)c1nc2cc3c(cc2s1)OCO3	0.0	-3.9%	-1.3	-3%	?	-6
CC1Cn2c(nnc2-c2cccs2)S1 (configuration not stated)	-0.1	-9.4%	/	9%	-38%[inhibitor]	-2
COCCn1c(=O)[nH]c2cc(C(=O)NCCN3CCN(c4ccc(OC)cc4)CC3)ccc2c1=O	0.2	-9.1%	0.9	5%	-17%	-1
CC1=C(C(=O)N(C(C)C)C(C)C)CC(CC(=O)NCCc2ccccn2)C(=O)N1CCCN1CCCC1=O (configuration not stated)	1.0	-3.2%	/	/	/	10
CC1CCCCC1NC(=S)Nc1ccc(Cl)cc1Cl (configuration not stated)	0.3	/	1.2	?	-37%[15.4 µM]	-2
O=C(CSc1ccsc1[N+](=O)[O-])NCc1ccco1	0.4	-2.7%	-1.9	0%	-115%[inhibitor]	-10
CCN1CCCC1CNC(=O)CCc1nnc(CCC2CCCCC2)o1 (configuration not stated)	0.2	/	-0.5	1%	-50%[inhibitor]	5
CCOC(=O)c1csc(NC(=O)c2ccc(N3C(=O)CCC3=O)cc2)n1	-0.8	0.9%	-0.4	15%	?	1
Cc1ccc(C)c(NC(=O)CCN2CCC(C)CC2)c1	-0.5	0.9%	-0.7	-9%	2%[15.4 µM]	-2
COc1ccc(-c2nn(C)c(=O)c3ccccc23)cc1NC(=O)Cn1nc(-c2ccccc2)c2ccccc2c1=O	-0.3	-26%	22	-10%	13%	-8
CCOC(=O)c1cnc(-c2ccccc2)nc1Oc1ccc(OC)cc1	-0.5	1.9%	-0.6	-7%	-42%[inhibitor]	0
CCCc1nc2ccccc2n2c(-c3cccc(C)c3)c3c(=O)n(C)c(=O)n(C)c3c12	-1.0	-23%	/	/	/	0
Cc1cc(/C=C\c2ccccc2)nc2ccccc12	0.9	-5.0%	-0.2	-14%	20%	5
Cc1ccccc1NC(=O)CSc1nnc(-c2ccco2)n1N	-0.2	/	/	-1%	2%[15.4 µM]	-6
O=C(c1ccc(F)cc1)c1cn(Cc2ccc(F)cc2)c2cc3c(cc2c1=O)OCCO3	0.2	4.7%	-0.7	6%	?	-13
Cc1ccc(-c2noc(CCCOc3ccc(Cl)cc3Cl)n2)cc1	1.9	-5.8%	1.1	2%	?	-10
NC(=O)N1CCc2ccccc21	0.2	/	-6.0	19%	-14%[15.4 µM]	12
CC(=O)NC12CC3CC(C1)CC(C(=O)OCC(=O)c1ccc4c(c1)OCCO4)(C3)C2	0.5	-0.5%	2.4	-8%	17%	-16
CCOC(=O)c1sc(NC(=O)CSc2nnnn2-c2ccc(C)c(C)c2)nc1C	-0.6	-2.3%	-5.1	-12%	3%	-16
Cc1csc(SCC(=O)Nc2nc3ccccc3s2)n1	2.5	-0.9%	3.5	11%[15.4 µM]	-6%	-7
O=C(Nc1nnc(C2=COCCO2)o1)c1ccc(S(=O)(=O)N2CCCCC2)cc1	-0.3	/	1.5	-17%	-27%	7
Cc1ccnc(SCc2cc(=O)c(OC(=O)c3ccc(Br)o3)co2)n1	1.7	-2.5%	0.6	-12%	?	-15
O=C1CN(C(=O)COC(=O)C2=COCCO2)c2ccccc2N1	-0.8	-0.6%	4.6	11%	-7%	-5
NC(=O)c1c(NC(=O)c2ccc(F)cc2)sc2c1CCC2	-0.6	/	15	-23%	-15%	3
CCC(CC)C(=O)c1c[nH]c(C(=O)NCCOC)c1	-1.0	0.6%	4.6	14%	-3%[15.4 µM]	-7
COC(=O)CN1C(=O)C(O)(CC(=O)c2ccc(C)o2)c2ccccc21 (configuration not stated)	0.5	-1.0%	-0.8	-2%	?	3
CCC(CC)C(=O)Nc1nnc(SCC(=O)NC(C)(C)C)s1	0.6	-2.4%	-1.8	4%	?	15
O=C(CN1C(=O)COc2ccccc21)N(Cc1cccnc1)Cc1ccccc1F	-0.2	-0.2%	-0.2	-5%	-22%	-4
N=C1S/C(=C\c2cn[nH]c2-c2ccc(F)cc2)C(=O)N1c1ccccc1F	0.4	-0.3%	14	9%	3%[15.4 µM]	1
Cc1cccc(N2CCN(C(=O)Cn3ncc4c5ccccc5n(C)c4c3=O)CC2)c1C	1.4	-10%	/	/	/	-21
Cc1ccc(-n2c(-c3ccc(Br)cc3)n[nH]c2=S)c(C)c1	-0.9	-4.7%	/	/	?	-5
O=C(c1sccc1-n1cccc1)N1CCCC1	-0.6	0.0%	2.4	6%	-29%	10
Cc1cc2[nH]c(=O)c(=O)[nH]c2cc1S(=O)(=O)NC1CCC(C)CC1 (configuration not stated)	0.3	4.8%	/	-6%	24%	-3
O=C(N/N=C/c1sc(=O)n(-c2ccccc2)c1Cl)c1ccncc1	-0.1	/	?	4%	-4%[15.4 µM]	6

An excerpt of these results, as labelled records.
Compound: Cc1cc2[nH]c(=O)c(=O)[nH]c2cc1S(=O)(=O)NC1CCC(C)CC1 (configuration not stated)
  TRPML1 agonist: 0.3; ClpP mod: 4.8%; Menin MLL FP FL: /; gsp antag: -6%; gsp agonist: 24%; TRPML1 blocker: -3
Compound: Cc1ccc(-n2c(-c3ccc(Br)cc3)n[nH]c2=S)c(C)c1
  TRPML1 agonist: -0.9; ClpP mod: -4.7%; Menin MLL FP FL: /; gsp antag: /; gsp agonist: ?; TRPML1 blocker: -5

Following part.
compound	TRPML1 agonist	ClpP mod	Menin MLL FP FL	gsp antag	gsp agonist	TRPML1 blocker
Cn1cccc1Cc1nnc(SCC(=O)NC2CCCC2)n1-c1ccc(F)cc1	0.6	7.8%	1.0	0%	-37%[inhibitor]	-9
COc1cccc(C(=O)NCCCNC(=O)c2ccco2)c1	0.1	/	-1.1	10%	-2%	10
CC(=O)NS(=O)(=O)c1ccc(NC(=S)NC(=O)Cc2ccccc2)cc1	0.0	0.2%	-0.2	11%	3%	15
COc1ccc(-c2noc(-c3nnn(-c4ccc(C)cc4C)c3C)n2)cc1	0.3	-3.8%	/	/	/	11
O=C(Cc1ccc(F)cc1)N1CCN=C1SCc1ccc([N+](=O)[O-])cc1	0.5	-7.6%	4.4	7%	14%	41
Cc1ccc2nc(-c3ccc4c(c3)NC(=O)CO4)cn2c1	-0.8	/	0.9	-6%	19%	1
CCN(CC)CCN1C(=O)C(=O)/C(=C(/O)c2ccc(OC)c(OC)c2)C1c1ccccn1 (configuration not stated)	-1.0	-4.0%	1.2	-3%	5%	-8
CCc1ccc(CNC(=O)C2CCCN(S(=O)(=O)N3CC(C)CC(C)C3)C2)cc1 (configuration not stated)	1.5	/	-13	11%	17%	-11
Cc1cccc(-c2nc(Nc3ccc(O)cc3)c3ccccc3n2)c1	1.3	/	0.0	-20%	-31%[inhibitor][15.4 µM]	-3
Cc1ccc2c(c1)C(c1ccc(F)cc1)N(C(=O)c1cccc(C(F)(F)F)c1)CC(=O)N2 (configuration not stated)	-0.1	-18%	/	/	/	16
Cc1ccnc(NC(=O)Cn2cc([N+](=O)[O-])cn2)c1	1.1	/	2.0	19%	4%[15.4 µM]	2
COc1ccc(C(=O)CSc2n[nH]c(C)n2)cc1[N+](=O)[O-]	-0.5	/	0.8	-3%	36%	5
Cc1[nH]c2ccccc2c1C(O)c1ccncc1 (configuration not stated)	0.9	/	-2.4	1%	-1%[15.4 µM]	-5
O=C(CN1CCCCC1)NCCNc1ccc(C(F)(F)F)cc1[N+](=O)[O-]	1.3	1.0%	4.4	13%	0%	8

Compounds were not picked by outcome (roughly 2.1% active in at least one column).
